# MT1-MMP act inh = blockers of MT1-MMP proenzyme processing, primary screen, HT1080 RFP-PRO-GFP cells, GFP/RFP fluorescence; AID 651647, 2012; GFP/RFP ratio fluorescence, overnight; percent of plate control window, DMSO zero; GFP/RFP ratio change, % at 20 µM; Matrix metalloproteinase-14 (Homo sapiens), P50281; actives 0.061% (n = 360,000);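 active = GFP/RFP ratio change of at least 30% with cell ATP level not reduced by more than half and red fluorescence within 50% of control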; also: strong numbers were not always called active
#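 Material: RFP-PRO-GFP reporter HT1080 cells. Dosing: single-point 20 µM compound, 1% DMSO. Controls: DMSO and RFP-L50D-GFP cell wells. Timing: cells overnight before dosing, compound overnight, 37 °C, 5% CO2. Measure: GFP/RFP fluorescence ratio.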
# CSC inhib = cancer stem cell viability inhibitors, primary screen, luminescence. cancer stem cell-like cells viability. inhibition, % at 7.5 µM. actives 1.1% (n = 300,000);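 active = mean at 75% or more and at least half the replicates too; tested in HMLE shEcad cells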;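 also: 0% = median of negative and 100% = median of positive control wells; the first replicate is given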
# Rce1 inhib = yeast Rce1p protease inhibitors, primary screen, biochemical, fluorescence, cell-free homogeneous | CAAX prenyl protease 2 (Saccharomyces cerevisiae (strain ATCC 204508 / S288c)), Q03530 | yeast membranes, quenched prenylated peptide cleavage fluorescence | calls only | actives 0.27% (n = 290,000);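 active = fall in fluorescence gain of 50% or more versus controls, with final raw signal at or below 3038400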;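 also: plate controls were neutral control wells for no effect and wells lacking membranes for full effect; tested at 10 µM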
# Target sequence (Q03530 whole entry, looked up): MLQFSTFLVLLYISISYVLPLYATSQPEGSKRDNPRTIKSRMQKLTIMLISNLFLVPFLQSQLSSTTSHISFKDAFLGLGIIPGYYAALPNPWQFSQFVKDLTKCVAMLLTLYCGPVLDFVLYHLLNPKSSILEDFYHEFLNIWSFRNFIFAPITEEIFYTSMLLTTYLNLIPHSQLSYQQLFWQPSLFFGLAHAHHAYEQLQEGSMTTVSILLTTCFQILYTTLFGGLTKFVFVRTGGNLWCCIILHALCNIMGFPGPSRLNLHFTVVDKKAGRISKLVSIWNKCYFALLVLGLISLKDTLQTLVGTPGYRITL
# eIF4H FP inh = human eIF4H binding inhibitors, primary screen, translation initiation inhibitor project, biochemical, uHTS, fluorescence polarization. eIF4H fluorescence polarization binding assay. actives 0.94% (n = 290,000). Eukaryotic translation initiation factor 4H (Homo sapiens), Q15056. inhibition, % at 35 µM. AID 2012, 2009;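 active = 50% or more with normal probe brightness, or confirmed in later tests; about a fifth of its hits are not listed in these tables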;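 also: calls also rest on retests at 20 µM and on dose response follow-up; 0% = protein and probe with vehicle and 100% = probe without protein; strong numbers were not always called active; many hits fall short of the cut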
# Env fusion inh = inhibitors of HIV-1 Env-driven cell-cell fusion, primary screen, HeLa-JRFL effector, CEM21 target cells, luciferase | inhibition, % at 12.3 µM | actives 1.1% (n = 360,000) | AID 651610, 2012;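 active = mean replicate inhibition score of at least 50 and every replicate individually at or above 50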;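 also: 0% = plate neutral controls and 100% = maraviroc near 300 nM; one replicate is shown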
# PABP polyA inh = PABP poly(A) RNA binding inhibitors, primary screen, biochemical, fluorescence polarization, uHTS. actives 1% (n = 290,000). Polyadenylate-binding protein 1 (Homo sapiens), P11940. inhibition, % at 35 µM. AID 2014, 2009;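 active = 50% or more with normal probe brightness, or confirmed in later tests; about a fifth of its hits are not listed in these tables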;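 also: calls also rest on retests at 20 µM and on dose response follow-up; controls were probe without protein and protein plus probe with vehicle; some compounds called inactive have numbers as strong as hits; many hits fall short of the cut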
# Yeast UUG start = modulators of yeast start codon fidelity, primary screen, whole organism, S. cerevisiae, single point, plate reader; S. cerevisiae UUG-firefly luciferase reporter, luminescence/redox ratio; activity score, % at 18.7 µM; actives 0.13% (n = 350,000); AID 602363, 2012;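 active = replicate mean at a twofold rise or more, about +100% in these data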;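 also: firefly luciferase made from a UUG start codon reports start codon fidelity; reporter light over untreated wells divided by growth signal over untreated wells; some hits fall short of that in this replicate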
# eIF4H FP inh retest = also measured in eIF4H FP inh; calls as there; inhibition, %; compound at 20 µM; confirmation average;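 mean of two retest wells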
# PABP polyA inh retest = second read-out of PABP polyA inh, no call of its own (marks repeat the call); inhibition, %; compound at 20 µM; confirmation repeats;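 mean of two retest wells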
# MT1-MMP act inh RFP = recorded beside MT1-MMP act inh, whose call it bears; RFP signal change, %; measured here: RFP expression control read;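 0 = vehicle wells; hits needed this value within 50% of zero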
# An asterisk follows results filed as active; i = inactive; nt = not tested or not shown. Some of the compounds tested, so the mix of outcomes need not match the whole.
SMILES,MT1-MMP act inh,MT1-MMP act inh RFP,CSC inhib,Rce1 inhib,eIF4H FP inh,Env fusion inh,PABP polyA inh,Yeast UUG start,others
CCCCCC(=O)N1C[C@H](O)[C@@H](n2cc(C3CC3)nn2)C[C@@H]1c1ccc(Cl)cc1,3,4,nt,nt,nt,-5,nt,-8,
Nc1nnc(CC(c2ccccc2)c2ccccc2)s1,-8,-4,-3,i,-3,-22,2,nt,
CCC(C)N(C(=O)COC(=O)COc1c(C)cc(C)cc1C)C1CCS(=O)(=O)C1 (stereo unspecified),-3,4,-10,i,nt,4,nt,nt,
COc1cc(C(=O)NCCOc2cc(C)cc(C)c2)cc(OC)c1OC,-8,-10,53,i,-4,-151,-2,15,
CC(C)=N/N=C(\N)SCc1ccccc1,1,3,19,i,-3,13,-9,nt,
Cc1ccc(Cn2nnc(C(=O)Nc3cccc(C)c3C)c2N)cc1,-7,-8,35,i,-7,-14,-8,0,
CCCCCCCCNC(=O)CC(NS(=O)(=O)c1ccc(NC(C)=O)cc1)C(C)C (stereo unspecified),1,-4,0,i,-4,33,11,-8,
CC(C)C(NC(=O)CC12CC3CC(CC(C3)C1)C2)C(=O)O (stereo unspecified),7,2,-16,i,-6,nt,3,nt,
CC1(C)C2CC[C@]3(C)C(CC=C4[C@@H]5C[C@@](C)(CO)[C@@H](O)C[C@]5(C(=O)O)CC[C@]43C)[C@@]2(C)CC[C@@H]1O (stereo partly specified),3,5,-13,i,nt,nt,nt,-12,
CC(=O)c1ccc(C(=O)N2CCCC(Nc3ccc(C(C)C)cc3)C2)s1 (stereo unspecified),-1,-5,-3,i,0,-6,-2,0,
CCCCCC(=O)NNC1CC(=O)N(c2cccc(OCC)c2)C1=O (stereo unspecified),-3,0,2,i,-6,4,-4,nt,
Cc1nnc(NC(=O)c2cc(-c3ccncc3)nc3c(C)cccc23)s1,-4,3,-11,i,2,-22,5,-16,
CCCn1cc(CN2CCC(Cc3cccc(F)c3)(C(=O)OCC)CC2)c(C)n1,0,-4,4,i,9,0,0,-1,
O=C(NCCC1=CCCCC1)C1CCCN(S(=O)(=O)c2ccccc2)C1 (stereo unspecified),-11,-9,-10,i,1,33,2,nt,
Nn1c(Cc2ccccc2)n[nH]c1=S,3,3,-2,i,-1,0,0,-21,

# Quoted at random: two compounds from above
SMILES,MT1-MMP act inh,MT1-MMP act inh RFP,CSC inhib,Rce1 inhib,eIF4H FP inh,Env fusion inh,PABP polyA inh,Yeast UUG start,others
CCCCCC(=O)NNC1CC(=O)N(c2cccc(OCC)c2)C1=O (stereo unspecified),-3,0,2,i,-6,4,-4,nt,
COc1cc(C(=O)NCCOc2cc(C)cc(C)c2)cc(OC)c1OC,-8,-10,53,i,-4,-151,-2,15,

# Next section.
SMILES,MT1-MMP act inh,MT1-MMP act inh RFP,CSC inhib,Rce1 inhib,eIF4H FP inh,Env fusion inh,PABP polyA inh,Yeast UUG start,others
CC(=O)COC(=O)C1=NN(c2ccccc2)C(=O)CC1,0,3,-5,i,0,8,-3,-17,
COc1ccc2c(c1)N(C(=O)CN1C(=O)C3CCCCC3C1=O)C(C)(C)C=C2C (stereo unspecified),0,0,5,i,-1,nt,-18,-16,
CCOC(=O)N1CCC(=NNc2ccnc3cc(Cl)ccc23)CC1,-6,-3,-12,i,0,13,-10,nt,
Cn1c(CN2CCOCC2)nnc1SCc1cccc(F)c1,-2,3,-3,nt,-10,10,-8,nt,
Cc1ccc2c(CN3CCN(c4ccc(Cl)c(Cl)c4)CC3)cc(=O)oc2c1,1,-7,nt,nt,nt,17,nt,-21,
COC(=O)[C@H](CC(C)C)NC(=O)Nc1cccc(Br)c1,1,4,4,i,4,-23,-10,nt,
CC1CCN(S(=O)(=O)c2ccc(NC(=O)c3cccs3)cc2)CC1,4,-8,nt,i,-2,nt,-1,0,
CCCn1c(=N)n(CC(O)c2ccc(C)cc2)c2ccccc21 (stereo unspecified),-4,-1,-4,i,3,4,-4,nt,
O=C(Nc1ccc(Cl)cc1)N1CCSC1=NCc1ccccc1,2,1,23,i,6,-17,-1,nt,
COc1ccc(-c2nnc(SC(C)C(=O)NCc3ccc4c(c3)OCO4)n2Cc2ccco2)cc1 (stereo unspecified),-3,-1,22,i,12,nt,3,-12,
CCCCOC(=O)C1=C(C)Nc2nnnn2C1c1ccc(OC)c(OC)c1OC (stereo unspecified),-6,-3,-1,i,6,-31,0,3,
CC(C)(C)S(=O)N1Cc2cc(C(=O)NCc3ccc4c(c3)OCO4)nc(-c3cccc(-c4cc5ccccc5o4)c3)c2[C@@H]1CCO (stereo partly specified),-1,0,nt,nt,nt,30,nt,-9,
CCOC(=O)c1c(CCl)nc2ccccc2c1-c1ccccc1,-107,4,-15,i,5,16,9,nt,
COc1ccc(NC(=O)Nc2ccc3c(c2)C(=O)N([C@H](C)CO)C[C@H](C)[C@@H](CN(C)S(=O)(=O)c2ccc(F)cc2)O3)cc1,1,1,nt,nt,nt,4,nt,-6,
CNC(=O)c1c(NC(=O)c2ccc(S(=O)(=O)N3CCCCC3)cc2)sc2c1CCN(C(C)C)C2,-23,-4,-13,i,47,nt,-11,4,
CC(=O)c1sc(C(C)(C)C)cc1NC(=O)/C=C/C(=O)O,-3,-4,6,i,0,0,2,-16,
COc1ccc(NC(=O)Nc2nnc([C@H]3C[C@H](O)[C@@H](CO)O3)s2)cc1,3,2,nt,nt,nt,6,nt,-12,
CCCc1cc(=O)oc2cc(OCC(=O)NC(Cc3c[nH]c4ccc(O)cc34)C(=O)O)c(Cl)cc12 (stereo unspecified),0,7,-12,nt,52*,nt,20*,12,eIF4H FP inh retest=63*;PABP polyA inh retest=51*
O=C(Nc1ncccc1O)c1c(O)c2ccccc2[nH]c1=O,6,4,4,i,1,3,11,nt,
CCN(C(=S)Nc1ccccc1F)C1CCCCC1,2,1,-6,nt,-1,nt,0,-17,
C(=N\Nc1nc2ccccc2[nH]1)/c1c[nH]c2ccccc12,13,-16,-4,i,3,nt,-6,nt,
COc1cc(/C=N/NC(=O)c2ccncc2)cc(OC)c1OC,-2,0,-13,i,-8,19,8,-4,
CC(C)NC(=O)Cn1cc(C(=O)C2CC2)c2ccccc21,-5,0,1,i,6,-3,2,nt,
O=C(Nc1ccc(Cn2cccn2)cc1)c1ccc(COc2ccccc2Br)cc1,nt,nt,-19,i,1,-9,-3,-7,
O=C(Cn1cnc2ccccc2c1=O)NCCC(=O)N1CCN(Cc2ccccc2)CC1,-5,-1,-2,i,-2,3,-8,11,
CCOc1ccc(Oc2cc(NC(=O)c3ccco3)cc([N+](=O)[O-])c2)cc1,-7,-10,18,nt,-11,44,6,nt,
O=C(c1ccccc1Cl)N1N=C(c2cccs2)CC1c1cccc(O)c1 (stereo unspecified),0,-4,9,i,-3,-3,1,4,
O=C(Nc1cccc(C(=O)Nc2ccc(Br)cc2)c1)c1ccccc1,3,-2,5,i,-3,-24,-9,-9,
O=C(OCCN1CCCCC1)c1ccccc1Cl,7,3,-11,i,-1,-224,-4,-11,
Nn1c(SCC(=O)NC2CCCC2)nnc1-c1ccccc1F,0,3,-13,i,2,nt,3,-10,
CC1CCCCC1NC(=O)CN1C(=O)c2ccccc2S1(=O)=O (stereo unspecified),-4,1,3,i,1,8,12,9,
Cn1cccc1/C=N\NC(=O)C1COc2ccccc2O1 (stereo unspecified),5,4,-5,i,-11,0,3,-15,
CC(C)CC(NC(=O)OC(C)(C)C)C(=O)NCc1ccccc1 (stereo unspecified),1,6,-15,i,-6,nt,0,-10,
Cc1nnc(NC(=O)CCC(=O)N2CCN(S(=O)(=O)c3cc([N+](=O)[O-])ccc3C)CC2)s1,-2,2,0,nt,nt,-17,nt,nt,
C=CCOc1cccc(/C=N/NC(=O)CN(c2cc(Cl)ccc2OC)S(=O)(=O)c2ccc(C)c([N+](=O)[O-])c2)c1,4,-6,-6,i,-4,nt,-11,nt,
COc1cc(/C=N\n2cnnc2)ccc1OCC(=O)Nc1ccc(C)cc1,2,2,1,i,-2,11,9,-10,
C[C@H](N=C1NS(=O)(=O)c2ccccc21)C(=O)OCc1cc([N+](=O)[O-])cc2c1OCOC2,-2,-1,-8,i,-13,4,0,7,
COc1cccc(NC(=O)CCN2C(=O)C3CC=CCC3C2=O)c1 (stereo unspecified),1,3,-3,i,-10,-47,-10,-18,
Cc1nn(C(=O)CCC(=O)NCc2ccccc2Cl)c2ccccc12,-1,6,nt,i,-5,2,4,-15,
COC(=O)N/N=C(\C)c1ccc(C)c([N+](=O)[O-])c1,1,-1,4,i,-24,-43,-5,nt,
COc1ccccc1NC(=O)CN(Cc1ccco1)C(=O)c1cncc(Br)c1,-2,-6,-14,nt,-9,-2,3,nt,
CCCCCCOc1ccc(N2C(=O)CC(N3CCN(C(=O)c4ccco4)CC3)C2=O)cc1 (stereo unspecified),-1,1,-5,i,6,nt,-2,-2,
Cc1ccc(S(=O)(=O)NCCN(CCNS(=O)(=O)c2ccc(C)cc2)S(C)(=O)=O)cc1,7,2,-17,i,-10,-13,-4,10,
COc1ccc(S(=O)(=O)N2CCCCC2)cc1N(C)S(=O)(=O)c1ccccc1,-1,-2,-3,i,-8,5,2,-12,
C#CCOc1c(Br)cc(/C=C2/C(=O)ON=C2C)cc1OCC,3,3,nt,i,14,14,0,-13,
C/C(=N\NC(=O)c1nc2ccccn2c1C)c1ccco1,0,5,6,nt,6,-20,2,nt,
CCOC(=O)C1=C(C)N(CCCC(=O)O)C(=O)NC1c1ccc(Cl)cc1Cl (stereo unspecified),2,5,-11,i,-9,7,-9,-10,
CC(C)(C)c1ccc(/C=C2\SC(=O)N(CCNC(=O)c3cccc(S(=O)(=O)N4CCOCC4)c3)C2=O)cc1,-11,-19,nt,i,-2,nt,7,-37,
CCCCCCCCn1c2c(c(=N)c3ccccc31)CCC2,-25,-34,nt,i,-16,56*,-14,nt,
CC(Oc1ccccc1Cl)c1nnc(N)s1 (stereo unspecified),-7,-1,-1,i,9,nt,5,-16,
C=CCN1C(=O)c2ccccc2NC1c1ccc(Br)s1 (stereo unspecified),-1,-3,-1,i,1,-1,-3,-4,
CCOCCCNC(=O)c1oc2ccc(S(=O)(=O)N3CCOCC3)cc2c1C,0,-1,-25,i,-8,4,-9,0,
CCOc1ccc(N(CC(=O)N2CC=C(c3ccccc3)CC2)S(=O)(=O)c2c(C)noc2C)cc1,-3,-9,-5,i,-5,-48,-5,2,
N#Cc1cnn(-c2ncnc3sc4c(c23)CCCC4)c1N,5,6,-3,i,11,nt,4,-12,
Cc1ccc(C(=O)N2c3ccccc3Sc3ccccc32)cc1,2,6,nt,nt,nt,35,nt,-9,
Cc1cccc(C(=O)N2CCC(Cc3ccccc3)CC2)c1[N+](=O)[O-],-4,-6,-24,i,-14,36,-1,nt,
CC(OC(=O)CNC(=O)C12CC3CC(CC(C3)C1)C2)C(=O)Nc1ccc(S(N)(=O)=O)cc1 (stereo unspecified),2,1,0,i,0,7,-5,nt,
Cc1ccc(C(=O)NNC(=O)c2cccc(S(=O)(=O)N3CCN(c4ccccc4)CC3)c2)cc1,2,-4,10,i,-2,-2,-9,-16,
S=C(Nc1cccc(Cl)c1Cl)N1CCCC1,2,8,4,i,-7,-6,5,-21,

# From PubChem
